# Compound activity: PubChem BioAssay, ICCB-Longwood Screening Facility, Harvard Medical School
# HCMV UL50-53 inh = disrupts HCMV UL50-UL53 complex binding. inhibition, % (no concentration beside the values). hit rate 0.15% among 190,000. HTRF UL50-UL53 interaction, normalized percent inhibition;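 active = both replicates at 50% or more, plus weaker picks with an unusually low signal ratio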;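 note: stock transfer was 100 nL into about 20 µL; 0% = negative control wells and 100% = wells with untagged competitor protein; inactives centre near -12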
# Active calls of the source: *; & = joins results of further samples. Not all compounds are listed; count on the stated rates, not on these rows.
SMILES,HCMV UL50-53 inh
O=C1CCC[C@@H]2[C@@H]3CCC[N+]4([O-])CCC[C@H](CN12)[C@@H]34 (some centres not stated),15
C[C@]12C=CC(=O)C=C1CCC1C2[C@@H](O)C[C@@]2(C)C1CC[C@]2(O)C(=O)COP(=O)(O)O (some centres not stated),-67
CCN(CC)c1ncnc2c1cnn2-c1cccc(C)c1,-4
COc1ccc(CCNC(=O)CSc2nc(N)c3c(C)c(C)sc3n2)cc1,5
N#C/C(=C\c1ccc(O)c(O)c1)C(=O)OCCc1cccs1,-24
C=C1C(=CC=C2CCC[C@@]3(C)C2CCC3C(C)C=CC(O)C2CC2)CC(O)CC1O (some centres not stated),-51
CC(C)N(C(=O)Cn1c(CO)nc2ccccc21)c1ccccc1,-15
O=C(Nc1cccnc1)N1CCC(Cc2cccc(Oc3ccc(C(F)(F)F)cn3)c2)CC1,2
CN(C)c1cc(NC(=O)CNC(C)(C)C)c(O)c2c1C[C@H]1C[C@H]3C(N(C)C)C(=O)C(C(N)=O)=C(O)[C@@]3(O)C(=O)C1=C2O (some centres not stated),-57
CCC(=O)NCc1ccc2c(c1)cc(C)n2C,-24
Nc1nc(-c2ccccc2)c(C(=O)Nc2ccccc2)s1,-22
COc1cc(Nc2nc3ccccc3nc2NS(=O)(=O)c2ccc(NC(=O)c3ccc(C)c(OC)c3)cc2)cc(OC)c1,-9
Cc1ccc(-c2cc(C(=O)N(C)CCc3cnn(C)c3)cc(S(=O)(=O)N3CCOCC3)c2)s1,-1
COc1ccc(NC(=O)CCCC(=O)O)c(OC)c1,-7
O=C(C1=COCCO1)N1CCN(c2nc3ccccc3s2)CC1,13&4
O=C(NCC12CC3CC(C1)CC(CNC(=O)C(F)(F)F)(C3)C2)C(F)(F)F,-24
COc1ccc2c(c1)C(=O)N(CCc1ccc(S(=O)(=O)NC(=O)NC3CCCCC3)cc1)C(=O)C2(C)C,-19&-10
COc1ccc(C(C#N)N2CCCCC2)cc1OC (configuration not stated),-1
Nc1ccc(C23CC4CC(CC(C4)C2)C3)cc1,-3
Cc1cc(C)c(C(N)=O)c(SCC(=O)c2ccc(Cl)cc2)n1,-20
COc1ccc(-c2csc3nccn23)cc1,-18
O=C[C@@H]1CCCN1C(=O)[C@@H]1CCCN1C(=O)OCc1ccccc1,-5
C1CCC2(CC1)CCNCC2,0
COc1cc(C)c(C(C)C)cc1S(=O)(=O)NCCCn1ccnc1,-3
COc1cccc(C(=O)NC(C)C(c2cccs2)N2CCOCC2)c1 (configuration not stated),-14
NC(=O)CSc1c(-c2ccccc2)[nH]c2ccccc12,-5
CC(C)C(=O)Nc1nc(-c2ccc(Br)s2)cs1,-36
C=C(C)CN1CCN(C(c2ccccc2)c2ccccc2)CC1,-18
CC(=O)Nc1ccc(N=Cc2ccc(OC(=O)c3cccnc3)cc2)cc1,-3
CCOC(=O)N1CCN(S(=O)(=O)c2ccccc2)CC1,-3
Cc1cc(C)n2c(Br)c(CN3CCC4(CC3)OCCO4)nc2n1,-5
CCCCC/C=C\C/C=C\CC1OC1C/C=C\CCCC(=O)O (configuration not stated),0
CSCCC(C(=O)O)N1C(=O)/C(=C/c2ccc(C)cc2)SC1=S (configuration not stated),-31
Cc1ccc(NC(=O)c2ccc(S(=O)(=O)N3CCCC3)cc2)cc1,-1
O=C(COc1ccc(Cl)cc1Cl)N(Cc1cccs1)C1CCS(=O)(=O)C1 (configuration not stated),1
O=C(CO)Nc1c(-c2ccccc2)c2cc(Br)ccc2[nH]c1=O,-23
O=C1c2ccccc2C(=O)c2c1ccc(O)c2O,-205
CC1(C)SC2C(NC(=O)C(N)c3ccccc3)C(=O)N2C1C(=O)O (configuration not stated),-55
CCN1CCN(C(c2ccccn2)c2c(C)[nH]c3ccccc23)CC1 (configuration not stated),-3
O=C(OCc1nc2ccccc2s1)c1cccc(Br)c1,-26
O=C1CSC(c2c(F)cccc2Cl)N1c1cccc(C(F)(F)F)c1 (configuration not stated),-9
OC1(c2ccc(Cl)cc2)CSC(=S)N1Cc1ccco1 (configuration not stated),-4
CCOC(=O)CC(=O)Nc1nc2ccccc2s1,14&3
CCCCC1C(=O)CC[C@H]2[C@@H]1CC(=O)[C@@H]2C/C=C\CCCC(=O)O (some centres not stated),-25&-25
O=C(O)CC/C=C\C[C@@H]1CO[C@H](c2ccccc2Cl)O[C@@H]1c1ccccc1O,6
COc1ccc2nc(NC(=O)/C=C/c3cccs3)sc2c1,-12
Cc1[nH]c(/C=C2\C(=O)Nc3ccc(S(=O)(=O)N(C)c4cccc(Cl)c4)cc32)c(C)c1C(=O)N1CCN(C)CC1,-19
CC1CC(C)CN(C(=O)c2sc3ccccc3c2Cl)C1 (configuration not stated),1
O=C(NCSc1ncccn1)c1ccccc1,0
Cc1cccc(NC(=O)CSc2ncnc3c2oc2ccccc23)c1C,32
Cn1cnc(=N)c2[nH]cnc21,10
CCOC(=O)c1sc(Nc2ccccc2)nc1C,-3
COc1ccc2cc1Oc1ccc(cc1)C[C@@H]1c3c(cc4c(c3Oc3cc5c(cc3OC)CCN(C)[C@@H]5C2)OCO4)CCN1C,5
O=C1CCN(S(=O)(=O)c2ccc(Cl)cc2)CC1,-5
O=C1N[C@@H](Cc2ccccc2)C(=O)N2CCN(C(=O)c3cccs3)C[C@H]12,-9
Cc1nnc2n(-c3ccccc3)c(=O)c3ccccc3n12,-16
CCc1cccc(NC(=O)CN2C(=O)COc3cc(S(=O)(=O)Nc4ccccc4)ccc32)c1,2
Cc1ccccc1NC(=O)CC(NCc1ccccc1)C(=O)O (configuration not stated),-2
CC1(C)S[C@@H]2[C@H](NC(=O)[C@H](C(=O)O)c3cccs3)C(=O)N2[C@H]1C(=O)O,-59
O=C(CSC1=NCCS1)N1CCC(Cc2ccccc2)CC1,-9
# The results go on:
SMILES,HCMV UL50-53 inh
O=c1[nH]c(=O)n([C@H]2C[C@H](O)C(CO)O2)cc1I (some centres not stated),-53
Cc1cc(NC(=O)C2CCCC2)nc2c1c(=O)oc1ccccc12,-6
CC(C)(C)C1=N/C(=C\c2ccccc2)C(=O)O1,-7
COc1cccc(COC2CN(Cc3ccccn3)C(=O)CN(C(=O)c3ccc(C)s3)C2)c1 (configuration not stated),-2
Cc1nnc(NC(=O)CSc2cn(Cc3ccccc3)c3ccccc23)s1,-6
CCC(=O)NCc1nc2ccccc2n1C,-15
Oc1cc(OCc2cccc(C(F)(F)F)c2)ccc1-c1ccn[nH]1,-5
COc1ccc(-c2cnn3c(Cl)c(CCCl)c(C)nc23)cc1OC,7
O=C(O)CCC(=O)c1ccc2c(c1)CCC2,-3
CCc1ccc(/C=C2\SC(=S)N(CCC(=O)NCCCN3CCOCC3)C2=O)cc1,-20
CCC(C)[C@@H](CO[C@@H](Cc1ccccc1)C(=O)N[C@@H](CCS(C)(=O)=O)C(=O)OC(C)C)NC[C@@H](N)CS (some centres not stated),-9
CCn1c(SCC(=O)NC2CCCC2)nnc1-c1c[nH]c2ccccc12,-12
Cc1ccc2nc(NC(=O)c3ccccc3C(=O)O)sc2c1,0
CCC(=O)OC1(C(=O)CCl)[C@@H](C)C[C@H]2[C@@H]3CCC4=CC(=O)C=C[C@]4(C)[C@@]3(F)[C@@H](O)C[C@@]21C (some centres not stated),-4
CCC(=O)Nc1cccc(-c2nc3ccccc3s2)c1,8
COc1ccccc1/C=C1\C(=O)Nc2ccccc21,-16
COc1ccc(CNC(=O)Nc2ncc([N+](=O)[O-])s2)cc1,-82&-97
Cc1cc(C)nc(SCc2cn3ccccc3n2)n1,-2
COC(=O)c1c(NC(=O)c2ccoc2)c2cc(NC3CCSCC3)cnc2n1CC(C)C,-5
Oc1c(Cl)cc(Cl)cc1/C=N/c1nc2c(s1)CCCC2,1
CCc1cc(CN2CCN(C)C(CCO)C2)on1 (configuration not stated),2&2
CCc1noc(Cn2cnc3sc4c(c3c2=O)CCC(C)C4)n1 (configuration not stated),-25&-25
Cc1c(O)ccc(-c2n[nH]c(C(F)(F)F)c2Oc2ccccc2)c1O,8
O=C1CCC(CC(=O)N2CCc3[nH]nc(-c4ccc5c(c4)OCO5)c3C2)N1 (configuration not stated),41&41
O=S(=O)(CCCCl)NC1CCN(Cc2ccccc2)CC1,-4
c1nc(N2CCOCC2)c2[nH]cnc2n1,-17
COc1cccc(C(=O)Oc2ccc3oc(=O)sc3c2)c1,-9
CCCS(=O)(=O)N1CCN(c2cccc(Cl)c2)CC1,-12
C[C@H](NC[C@H](O)CP(=O)(O)Cc1ccccc1)c1ccc(Cl)c(Cl)c1,2
CN(C)S(=O)(=O)c1ccc(C(=O)Nc2nccs2)cc1,-11
CCCCC[C@@H](O)/C=C/[C@H]1[C@H](C/C=C\CCCC(=O)O)C(=O)C[C@@H]1O,-6&-6
CCOc1cccc(NC(=O)c2ccc(S(=O)(=O)N3CCCCCC3)cc2)c1,-11
NCCCNc1ccccc1[N+](=O)[O-],-86
COc1ccc(C(=O)Nc2sc3c(c2C(=O)NCc2cccnc2)CCCC3)cc1,-7
CCCC(=O)NCCc1cc2c(OC)ccc(OC)c2[nH]c1=O,-14
CC(C)N1C(=O)CC(Nc2ccc(N3CCOCC3)cc2)C1=O (configuration not stated),2
COc1cc(Cl)ccc1C(=O)N1CCC(Cn2cc(C3CC3)nn2)CC1,5
CC(C)(C)C(=O)NC12CC3CC(CC(C3)C1)C2,2
CN(CCNc1ncnc2nc[nH]c12)Cc1ccccc1,-9
Cc1ccn2cc(C(C)(C)C)nc2c1,-6

# Structural class, the compounds so far with a COOH group.
SMILES,HCMV UL50-53 inh
COc1ccc(NC(=O)CCCC(=O)O)c(OC)c1,-7
CCCCC/C=C\C/C=C\CC1OC1C/C=C\CCCC(=O)O (configuration not stated),0
CSCCC(C(=O)O)N1C(=O)/C(=C/c2ccc(C)cc2)SC1=S (configuration not stated),-31
CC1(C)SC2C(NC(=O)C(N)c3ccccc3)C(=O)N2C1C(=O)O (configuration not stated),-55
CCCCC1C(=O)CC[C@H]2[C@@H]1CC(=O)[C@@H]2C/C=C\CCCC(=O)O (some centres not stated),-25&-25
O=C(O)CC/C=C\C[C@@H]1CO[C@H](c2ccccc2Cl)O[C@@H]1c1ccccc1O,6
Cc1ccccc1NC(=O)CC(NCc1ccccc1)C(=O)O (configuration not stated),-2
CC1(C)S[C@@H]2[C@H](NC(=O)[C@H](C(=O)O)c3cccs3)C(=O)N2[C@H]1C(=O)O,-59
O=C(O)CCC(=O)c1ccc2c(c1)CCC2,-3
Cc1ccc2nc(NC(=O)c3ccccc3C(=O)O)sc2c1,0
CCCCC[C@@H](O)/C=C/[C@H]1[C@H](C/C=C\CCCC(=O)O)C(=O)C[C@@H]1O,-6&-6

# Next compounds:
SMILES,HCMV UL50-53 inh
COc1ccc(C(=O)Nc2nc(-c3ccncc3)cs2)cc1,-19
COC(=O)c1sc(=Nc2ccccc2)n(-c2ccccc2)c1C,-18
O=C(O)CNC(=O)COc1cccc(Br)c1,5
COC(=O)CSc1nnc(-c2ccc(OC)cc2)o1,11&-2
Fc1cccc(CSc2c[nH]c3ccccc23)c1,-10
O=C1CCCN1c1ccc(C(F)(F)F)cc1,-2
Cn1nc(C(C)(C)C)cc1C(=O)NC(Cc1cccc(Cl)c1)C(=O)NCC#N (configuration not stated),-8
Cc1nsc(NC(=O)NCc2ccccc2OC(F)(F)F)n1,-7
C=CCN(CC=C)c1nn[nH]n1,-7
Cc1cc2nc3c(=O)[nH]c(=O)nc-3n(C[C@H](O)[C@H](O)[C@H](O)CO)c2cc1C,-126
N#Cc1ccc(C(=O)N2CCN(c3ccccc3)CC2)cc1,-10
CC(C)Oc1ccc(Cl)cc1-c1nnc2ccc(Cl)cn12,-14
O=C1NC(=O)C(=Cc2ccc3c(c2)OC(F)(F)O3)S1,-4
CC(=O)O[C@@]12C[C@@H](C)[C@@]3(O)[C@@H](C=C(CO)C[C@]4(O)C(=O)C(C)=C[C@@H]34)[C@@H]1C2(C)C,1&1
Cn1c(SCc2nc3ccccc3s2)nnc1-c1ccncc1,-5
NC(=O)CCC/C=C\C[C@@H]1[C@@H](/C=C/[C@@H](O)CCc2ccccc2)[C@H](O)C[C@@H]1O,-24&-24
Cc1ccc(C(=O)NC(C)C(=O)NC2CCCCC2)cc1 (configuration not stated),-17
COc1ccc(-c2coc3cc(O)cc(O)c3c2=O)cc1,22
O=C1CC(c2cccs2)Sc2nc3ccccc3n21 (configuration not stated),9
CCCCCCC[C@H](O)/C=C/[C@@H]1[C@@H](C/C=C\CCCC(=O)O)[C@@H](O)C[C@H]1O,-13&-13
CCn1c(SCC(=O)c2ccccc2)nnc1-c1cccs1,-13
COc1ccc(Nc2ncc(-c3cc4cc(OC)ccc4oc3=O)s2)cc1,-12
Oc1c(C(Nc2ccccc2)c2ccccn2)ccc2cccnc12 (configuration not stated),-18
CCC1OC(=O)C(C)C(OC2C[C@@](C)(OC)C(O)C(C)O2)C(C)C(OC2OC(C)CC(N(C)C)C2O)[C@@](C)(O)CC(C)[C@@H]2NC(COCCOC)OC(C2C)[C@]1(C)O (some centres not stated),-14
CC1C[C@H]2[C@@H]3CCC4=CC(=O)C=C[C@]4(C)[C@@H]3C(=O)C[C@]2(C)[C@]1(O)C(=O)CO (some centres not stated),-6
CCN1C(=O)N(CC(N)=O)C(=O)C12CCN(CC(C)Cc1ccc3c(c1)OCO3)CC2 (configuration not stated),1
CCCC[C@@H](N)C(=O)N1CCC(n2cc(CCCO)nn2)CC1,15
COc1cc(/C(O)=C(\C#N)c2nc3ccccc3s2)cc(OC)c1OC,-19
COCC(=O)NC(C)c1nc2ccccc2[nH]1 (configuration not stated),-6
Cc1cnc(NCCCn2ncc3ccccc32)nc1-c1cnn(C)c1,-6
Clc1cccc(Nc2nnc(-c3ccccc3)c3ccccc23)c1,-11&2
CC(C)Oc1ccc(C(F)(F)F)cc1N,-12
O=C(Oc1ccc(Cl)c2cccnc12)c1ccco1,-3
NC(=O)CCCCn1ccc(NC(N)=NCC(F)(F)F)n1,7
CN(C)C(=S)SCN1CCCC1=O,2&-8

# Three structures already listed, sorted by length of the SMILES, rising.
SMILES,HCMV UL50-53 inh
COCC(=O)NC(C)c1nc2ccccc2[nH]1 (configuration not stated),-6
Clc1cccc(Nc2nnc(-c3ccccc3)c3ccccc23)c1,-11&2
CC1C[C@H]2[C@@H]3CCC4=CC(=O)C=C[C@]4(C)[C@@H]3C(=O)C[C@]2(C)[C@]1(O)C(=O)CO (some centres not stated),-6
